# From PubChem BioAssay
# LANA-H2B inh: blocks KSHV LANA binding to histone H2A/H2B. Q9QR71. cell-free LANA-H2A/H2B peptide, fluorescence polarization. inhibition, % (test concentration not listed). 320,000 compounds, 0.6% hits; in the data active means inhibition mostly above about 10%, no sharp cut-off; inactive means mostly below about 6.7%;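 further: stock transfer was 7.5 nL into about 10 µL; 0% = median of vehicle wells and 100% = median of positive control wells; one replicate is shown; the record names a cut of 25% in any replicate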
# UCH37 inh: human UCH37 deubiquitinating enzyme inhibition; Q9Y5K5; purified proteasome/UCH37, Ub-AMC cleavage fluorescence; inhibition, % (test concentration not listed); 330,000 compounds, 0.33% hits;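 active means mean of two replicates above 20%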;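 further: 0% = compound-free wells with enzyme and 100% = wells lacking proteasome; stock transfer was 100 nL into about 20 µL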
# Target sequence (Q9Y5K5 whole entry, looked up): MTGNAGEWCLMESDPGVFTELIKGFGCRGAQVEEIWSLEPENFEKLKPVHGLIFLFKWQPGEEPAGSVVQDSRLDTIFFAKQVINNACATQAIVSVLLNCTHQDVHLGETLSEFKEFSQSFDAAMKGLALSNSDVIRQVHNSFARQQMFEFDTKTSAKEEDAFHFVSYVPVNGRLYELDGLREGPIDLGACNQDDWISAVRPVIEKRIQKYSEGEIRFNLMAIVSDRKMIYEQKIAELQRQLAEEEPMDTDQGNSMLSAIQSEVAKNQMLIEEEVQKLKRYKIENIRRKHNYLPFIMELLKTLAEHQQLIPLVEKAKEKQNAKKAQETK
#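 Test system – human UCH37 enzyme supplied as purified proteasome complex · Incubation – 30 min preincubation with enzyme, 25 min cleavage at room temperature · Detection – AMC fluorescence from Ub-AMC cleavage, excitation 355 nm, emission 460 nm · Benchmarks – no-proteasome wells (full inhibition) and compound-free wells (no inhibition)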
# T cruzi inh: T. cruzi replication inhibition; T. cruzi beta-gal in NIH3T3, luminescence, 90 h; inhibition, % (concentration not given with the values); 300,000 compounds, 1.4% hits; AID 1885;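 active means mean inhibition across valid replicates above about 55%, limit read from the data; inconclusive means mean below that limit but half or more replicates reach it; inactive means mean below it, under half of replicates reach it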;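 further: signal also drops with host cell toxicity which is not excluded here; 0% = plate median of DMSO wells and 100% = zero luminescence signal; higher percent means less beta-gal luminescence so fewer parasites; stock transfer was 50 nL into about 50 µL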
# Beta cell apopt: blocks beta cell apoptosis; 300,000 compounds, 0.8% hits; INS-1E cytokine-induced death, ATP luminescence, 48 h; percent of positive-control rescue, neutral wells zero; protection from apoptosis, % (test concentration not listed); AID 435005;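 active means all replicates at 75% or more, or half of them and the mean; inconclusive means half reach 75% but not the mean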;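 further: 0% = cytokine-treated negative control wells and 100% = positive control rescue; higher means more ATP so stronger rescue from cytokine killing; wells of about 40 µL received 100 nL stock; the first replicate is given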
# A1 inh: inhibitors of the anti-apoptotic protein A1, read as caspase activation. MEF A1-2A-BIM cells, Caspase-Glo 3/7 luminescence, 3 h; percent of clofoctol response, vehicle zero. caspase activation, % (no concentration beside the values). 330,000 compounds, 0.066% hits. AID 2462;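 active means over half of replicate activation scores above 10%, or exactly half above 10 with the replicate mean above 10; inconclusive means replicate mean below 10 yet half the replicates above 10; inactive means over half of replicates below 10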;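 further: wells of about 30 µL received 50 nL stock; many hits fall short of the cut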
# Calb FLC: affects C. albicans growth with fluconazole; C. albicans CaCi-2 (fluconazole-resistant clinical isolate) + fluconazole, Alamar Blue growth, 48 h; growth inhibition, % (test concentration not listed); 300,000 compounds, 0.57% hits;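 active means most replicates above 75%; inconclusive means exactly half above 75%; inactive means most below 75%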;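 further: all wells also contain fluconazole at 8 µg/ml as a sub-toxic cotreatment; 0% = median of DMSO wells and 100% = median of geldanamycin control wells; wells of about 8 µL received 7.5 nL stock; the first replicate is given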
# RanGTP-Imp inh: inhibitors of RanGTP-importin-beta interaction, primary screen, biochemical, FRET, CFP-Ran, YFP-importin-beta, homogeneous; cell-free CFP-Ran/YFP-importin-beta FRET ratio; inhibition, % (no concentration beside the values); 300,000 compounds, 1.1% hits;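 active means most replicates above 15%; inconclusive means exactly half above 15%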;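 further: 0% = DMSO wells and 100% = Ran loaded with GDP instead of GTP; wells of about 40 µL received 100 nL stock; the first replicate is given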
# B2AR ag: activates human beta-2 adrenergic receptor causing internalization. AID 504454. Am2.2-beta2AR cells, FAP receptor internalization, flow cytometry; reference of the scale not given here. 340,000 compounds, 0.43% hits. P07550. response, % (no concentration beside the values);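 active means response above a set limit, near 3 SD of response in nonfluorescent compounds, cut at about 42% in these data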;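 further: stock transfer was 100 nL into about 11 µL; a reference agonist was the positive control; negative values mostly stem from fluorescent compounds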
# Target sequence (P07550 whole entry, looked up): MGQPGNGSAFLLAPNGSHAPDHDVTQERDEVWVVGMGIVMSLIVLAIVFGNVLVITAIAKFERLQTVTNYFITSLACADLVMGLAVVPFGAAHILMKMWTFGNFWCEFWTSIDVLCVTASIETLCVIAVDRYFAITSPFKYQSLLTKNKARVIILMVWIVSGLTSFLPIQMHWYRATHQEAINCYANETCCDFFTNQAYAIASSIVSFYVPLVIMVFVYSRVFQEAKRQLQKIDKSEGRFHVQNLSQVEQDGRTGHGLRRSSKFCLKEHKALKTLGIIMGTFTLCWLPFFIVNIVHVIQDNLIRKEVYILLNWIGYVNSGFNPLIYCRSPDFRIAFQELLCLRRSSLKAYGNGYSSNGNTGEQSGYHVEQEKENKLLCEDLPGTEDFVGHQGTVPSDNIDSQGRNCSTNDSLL
# An asterisk follows results filed as active; ? = inconclusive; . = not tested or not shown. Compounds were not picked by outcome; about 4.3% have a hit in one of these screens.
SMILES,LANA-H2B inh,UCH37 inh,T cruzi inh,Beta cell apopt,A1 inh,Calb FLC,RanGTP-Imp inh,B2AR ag
Cc1ccc(C)c(C(=O)CN2C(=O)NC3(CCC(C)CC3)C2=O)c1 (stereo not given),.,0.7,6,-4,-0.3,4,-2.2,-4
CCN(CC)CCCNC(=S)N1CCN(c2nc(-c3ccccc3)cs2)CC1,-0.6,5.5,19,.,-0.7,-7,2.6,30
Cc1ccc(S(=O)(=O)N(C)c2ccc(OCC(=O)OCC(=O)N(CC#N)c3ccccc3)cc2)cc1,2.1,3.5,-4,-7,0.2,6,-0.5,-1
CC1(C)CC(=O)C(C=Nc2cccnc2/N=C/C2=C(O)CC(C)(C)CC2=O)=C(O)C1,6.8,.,-11,-6,-0.2,1,?,-6
CC(C)(C)NC(=O)Cn1c(=O)c(=O)n(Cc2ccccc2)c2ccc(Cl)cc21,-2.8,-17,5,-3,2.0,-4,4.0,-2
Cc1ccsc1C(=O)NNC(=O)Nc1ccc(Cl)c(Cl)c1,-1.6,-4.1,2,-8,0.4,-11,-4.8,9
CCN(Cc1ccccc1)C(=O)Cn1c(=O)n(-c2ccc(OC)cc2OC)c(=O)c2c(C)c(C)sc21,5.1,2.9,12,5,-0.2,3,-3.5,-2
CCOC(=O)c1cc(C)nn1-c1nc(Cl)cc(OC)n1,-3.1,4.6,-11,3,1.1,-3,-1.3,3
O=C(COc1ccc(S(=O)(=O)N2CCCCC2)cc1)NCc1ccccn1,4.3,0.9,0,3,0.2,-5,0.6,-1
COc1ccc(OC)c(C2=Nn3c(nnc3-c3cc(C)[nH]n3)SC2)c1,0.5,6.1,-5,6,-0.4,-6,-0.4,2
CC1CN(C(=O)CCC(=O)NCc2ccccc2)c2cc(Cl)ccc2O1 (stereo not given),0.0,6.0,-6,3,0.3,-6,?,1
CN(C)CCOC(=O)NC12CC3CC(CC(C3)C1)C2,0.8,2.3,15,-1,1.7,-2,?,1
Cc1cc(NC(=O)Cn2cc(C(F)(F)F)cc(Cl)c2=O)no1,0.3,-0.1,-12,.,0.2,-1,-0.5,-7
COc1ccc(C(=O)CSc2nc(C)cc(C)n2)cc1C,1.6,1.7,-9,-6,0.0,-15,4.1,3
COc1cc(C(=O)NC2CCN(CC(=O)NC3CCCCC3)CC2)cc(OC)c1OC,-4.0,3.0,7,6,-0.6,-8,22,-11
COc1ccc(CCNC(=O)CCCN2C(=O)c3ccccc3C2=O)cc1,4.2,6.0,12,-2,0.8,-9,-2.8,-1
O=C(NCCN1CCN(c2ccccc2)CC1)c1cccc(Cl)c1,-3.5,-0.5,44,2,0.6,-10,-1.2,18
CCN(CC)CCN(Cc1cc2cc(C)c(C)cc2[nH]c1=O)C(=S)NCc1ccco1,-1.1,-2.3,47,.,0.5,10,-1.7,5
CCC(=O)Nc1nnc(SCC(=O)Nc2cccc(Cl)c2)s1,-4.2,4.8,-6,-1,0.2,6,1.7,-3
CC(C)(C)c1ccc(-n2ncc3c2CCCC3NC(=O)C2(C(N)=O)CC2)cc1 (stereo not given),-1.6,5.5,-8,78*,-3.2,-9,0.7,11
Cc1csc(Nc2nc(N)c(C(=O)Nc3cc(Cl)ccc3F)o2)n1,-2.7,1.3,4,22,-0.4,3,3.4,11
CC(C)(C)OC(=O)NCc1ccc(CNC(=O)c2[nH]cnc2C(=O)NCC(=O)OCc2ccccc2)cc1,-5.6,-2.7,-4,1,0.6,0,2.0,15
O=C(Cc1ccccc1F)Nc1cc(S(=O)(=O)N2CCOCC2)ccc1N1CCOCC1,1.5,3.3,.,2,-0.4,.,.,1
COc1ccc(/C=C(\NC(=O)c2ccccc2)C(=O)OC[C@@H]2CCC[N+]3(C)CCCCC23)cc1OC (stereo not given in full),-5.0,6.0,-5,-3,0.6,1,-0.6,-29
O=C(c1cnn(C(=O)COc2ccccc2F)c1)c1cc(F)ccc1O,-3.6,.,-4,-10,-0.3,-3,4.4,12
CCOc1ccc(N/C(C)=C/C(=O)c2ccc3c(c2)OCCO3)cc1,-0.4,2.6,35,.,-0.7,1,-3.2,8
CC(C)(C)c1ccc(C(=O)NCc2nnc(SCC(=O)NC3CCCC3)o2)cc1,-0.5,1.2,-6,1,-0.6,-13,1.3,-4
COc1ccccc1CNC(=O)CN(C)S(=O)(=O)c1ccc(F)cc1,1.6,-2.6,4,0,0.6,-2,-7.9,-10
NC(=O)COC(=O)CCCc1nc2ccccc2s1,7.0,4.9,5,-4,0.6,8,-0.7,0
CCOc1ccc(NC(=O)c2ccc(NC(=S)NC3CC3)cc2)cc1,1.9,-0.3,1,0,0.7,-2,-4.7,0
O=C(/C(=N\O)n1cncn1)c1ccc(Br)cc1Br,2.9,.,-10,0,0.6,18,-0.2,12
CCCCOC(=O)Nc1nc(C)c(C(=O)OCC)s1,-2.7,.,-16,.,-1.7,6,0.2,2
CCOC(=O)Nc1ccc(S(=O)(=O)NC2CCCCC2)cc1,-5.5,-0.3,-2,8,0.0,-26,4.3,2
CCOC(=O)N1CCN(C(=O)c2cc(C)no2)CC1,0.8,6.5,-1,-6,0.7,-1,0.1,2
O=C(C[n+]1cccc(O)c1)NCc1ccc(Cl)cc1,3.7,2.0,-7,0,0.3,-10,-1.0,-11
O=S(=O)(c1cccc(-c2nnc3n2CCCCC3)c1)N1CCCC1,3.5,4.5,.,-6,-0.1,10,.,6
CCOC(=O)c1nnn(CC(=O)Nc2ccccc2OC)c1C(=O)OCC,-1.1,3.0,-9,-5,0.4,-2,4.0,7
CC(=O)Nc1ccc(N2C(=O)CC(Sc3nccc(C)n3)C2=O)cc1 (stereo not given),0.1,1.8,1,-5,-0.2,2,-2.8,1
CCCc1nn2c(=O)cc(CSCC(=O)Nc3ccc(F)cc3)nc2s1,-0.2,2.8,-9,0,0.6,-8,5.9,2
Cc1ccc(C)n1CCN1CCN(C(=O)c2ccco2)CC1,4.5,5.0,-7,-9,-0.6,6,1.5,2

# Single records, as listed above. Screens in order: LANA-H2B inh	UCH37 inh	T cruzi inh	Beta cell apopt	A1 inh	Calb FLC	RanGTP-Imp inh	B2AR ag
# Results for CCOc1ccc(N/C(C)=C/C(=O)c2ccc3c(c2)OCCO3)cc1 = -0.4	2.6	35	.	-0.7	1	-3.2	8
# Results for Cc1csc(Nc2nc(N)c(C(=O)Nc3cc(Cl)ccc3F)o2)n1 = -2.7	1.3	4	22	-0.4	3	3.4	11

# Next section:
SMILES,LANA-H2B inh,UCH37 inh,T cruzi inh,Beta cell apopt,A1 inh,Calb FLC,RanGTP-Imp inh,B2AR ag
Cc1cccc(C)c1OCC(=O)Nc1cccc(S(=O)(=O)N2CCCC2)c1,-5.7,1.4,-4,2,0.2,0,1.0,1
CCOC(=O)c1nnsc1-c1ccc(-c2snnc2C(=O)OCC)cc1,-3.6,.,6,1,0.1,.,2.3,-3
CCc1ccc(C2CC(=O)NC(SCC(=O)OC(C)C)=C2C#N)cc1 (stereo not given),-2.2,3.8,25,.,0.0,3,-3.2,2
CN(C(=O)CNC(=O)c1ccc(Br)o1)C1CCCCC1,-2.0,1.1,-5,-9,-0.4,.,.,-1
COc1ccc(NC(=O)C2CCN(S(=O)(=O)c3c(C)noc3C)CC2)cc1Cl,1.4,3.0,25,.,-0.4,-2,?,2
CCCCCN(C(=O)CCC(=O)OCC(=O)N(CC#N)c1ccccc1)c1c(N)n(CCCC)c(=O)[nH]c1=O,2.2,4.9,2,-4,0.5,-3,-3.4,18
O=C1CCN(Cc2ccccc2)N1,2.9,4.4,1,-4,0.0,4,0.2,2
CC(=O)Nc1ccc(C2=NN(CC#N)C(=O)SC2)cc1,0.8,4.5,-12,-3,-0.2,8,-0.6,-1
O=[N+]([O-])c1cccnc1N/N=C/c1ccccc1O,-4.4,.,44,110*,-8.1,-18,4.2,3
CCOC(=O)c1ccc(N/C=C2/CCCC(C)C2=O)cc1 (stereo not given),4.7,6.2,2,2,-2.9,6,10,-1
Cn1c(=O)n(C)c2cc(/C=N/N=C3/NC(=O)C(CC(=O)O)S3)ccc21 (stereo not given),-1.1,.,-4,-7,0.4,0,1.8,0
O=C(COc1ccc2ccc(=O)oc2c1)NCC(O)c1ccccc1 (stereo not given),-2.1,-28,-12,-1,0.8,-33,2.5,-4
O=C1c2ccccc2C(=O)N1CCSc1nnc(-c2ccco2)n1Cc1ccccc1,-1.3,4.4,7,6,0.1,?,-3.3,-6
COc1ccccc1C(CNc1ccc(S(=O)(=O)N2CCCC2)cc1[N+](=O)[O-])N(C)C (stereo not given),-1.4,-0.8,19,4,0.4,4,-2.7,0
CCCc1nc2ccccc2c(=O)n1-c1c(C)n(C)n(-c2ccccc2)c1=O,-8.1,-0.4,.,-8,0.0,1,-4.1,-4
O=C1CC(N2CCN(c3ccccc3F)CC2)C(=O)N1c1ccc2c(c1)OCCO2 (stereo not given),-1.2,1.0,0,-7,0.9,-2,-0.7,-7
COc1cc(OC)cc(C(=O)Nc2ccc(Cn3ccnc3)cc2)c1,3.0,0.5,-8,-4,-1.1,-10,-2.3,-10
CC(NC(=O)c1ccco1)c1nc(-c2ccccc2Cl)no1 (stereo not given),0.2,-0.6,11,.,0.7,0,-7.3,0
CS(=O)(=O)n1nc(OC(=O)c2cc(Br)ccc2Cl)cc1N,-9.2,0.8,-8,8,0.5,-10,.,2
C=CCSc1nc(N2CCOCC2)c2c(c1C#N)CC(C)(C)N(C)C2,.,1.5,39,.,.,8,?,3
CCC(C(=O)NC1CCCCC1)n1c(SCc2ccccc2F)nc2ccncc21 (stereo not given),-3.1,1.9,-14,10,0.0,-4,7.7,5
COC(=O)C1=C(C(=O)OC)C2C(C)=CC(C)=CN2C(C(=O)OC)=C1C(=O)OC (stereo not given),-0.8,-40,-12,-4,0.3,17,72*,4
O=C(Cc1ncc(C(F)(F)F)cc1Cl)NCc1ccco1,-4.5,0.2,-12,-3,-0.1,-1,-2.3,-6
O=C(/C=C/Nc1cccc([N+](=O)[O-])c1)c1ccco1,1.4,5.9,3,2,-3.6,-50,1.7,-9
CCn1cc(/C=N/NC(=O)c2ccc3c(c2)OCO3)c(C)n1,-0.8,.,3,-6,1.3,-3,-1.3,19
Cc1ccc(NC(=O)NC(=O)N(C2CCCCC2)S(=O)(=O)c2ccccc2)cc1,5.0,0.6,-4,-6,0.1,-28,-5.7,-2
Cc1cc(C)cc(-n2c3nc4ccccc4nc3c3c(=O)n(Cc4ccco4)cnc32)c1,-0.9,-11,-10,-2,-1.0,0,19*,-5
O=C(COc1ccc(Cl)cc1Cl)Nc1ccc(CN2CCCCC2)cc1,2.4,-1.3,3,-1,?,5,12,-3
C/C(=N\NC(=O)c1ccc(N(C)C)cc1)c1ccc(C)cc1C,4.1,.,-6,1,0.1,1,-0.7,10
Cc1noc(C)c1S(=O)(=O)N1CCCC(C(=O)N2CCc3ccccc3C2)C1 (stereo not given),3.5,5.1,-2,-2,-0.3,2,-0.2,-1
CN(Cc1ccccc1)C1CCN(Cc2ccccc2[N+](=O)[O-])CC1,-8.7,4.0,9,-4,0.2,-9,6.3,-1
CCC/C=C1/CCCOC(C(=O)NCc2ccc(C)o2)(C(F)(F)F)C1 (stereo not given),-3.4,2.6,.,-7,-0.9,.,.,16
